High-throughput results from PubChem.
AID504770: growth inhibitors of E. coli YBA685 in a screen for V. cholerae RctB (chromosome II replication) inhibitors; E. coli YBA685 rctB-dependent plasmid, OD600 growth, 3 h; stronger effect = lower value; z-score (concentration not given with the values); actives 0.27% (n = 130,000); AID 504770;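 active means z-score under -2 on both plates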;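 further: wells of about 30 µL received 100 nL stock; score is relative to mean and SD of the test wells; the first replicate is given; strong numbers were not always called active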
CapD inh: blocks the Bacillus anthracis CapD enzyme. purified CapD enzyme, fluorescence intensity read-out; stronger effect = lower value; some hits fall short of the stated cut. z-score (concentration not given with the values). actives 0.23% (n = 140,000). AID 492967;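 active means z-score under -4 in either of two replicates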;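 further: stock transfer was 100 nL into about 40 µL; score is relative to mean and spread of the plate; one replicate is shown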
* = called active by the depositor; . = not tested or not shown; & = joins results of further samples. Not a hit list; about 0.41% have a hit in one of these screens.

SMILES	AID504770	CapD inh
COc1cc(-c2c(C#N)c(N)nc3sc(C(=O)c4ccccc4)c(N)c23)cc(OC)c1OC	.	-0.54
COC(=O)c1cnc(S(=O)CC#N)n1C (stereo not given)	0.45	0.025
CCNC(=O)c1ccc2c(c1)N(C)CCS2	-0.2	103
O=C(COC(=O)c1ccc(Cl)s1)c1ccc2[nH]c(=O)[nH]c2c1	0.4	.
O=C(Nc1ccc(Cl)c(Cl)c1)Oc1ccc(NC(=O)c2ccco2)cc1	-1	.
CCCCNC(=O)Nc1nnc(C(C)(C)C)s1	.	-0.405
COc1ccc(/C=C/C(=O)OCc2cc(=O)n3cc(C)ccc3n2)cc1S(=O)(=O)N1CCOCC1	-0.15	.
Clc1ccc(CNc2ccc3nnc(-c4ccccc4)n3n2)cc1	1.25	-0.755
O=C(O)c1ccccc1C(=O)c1ccc(F)cc1	.	0.16
COc1ccc(NC(=O)C(NS(=O)(=O)c2ccc3nc(C)sc3c2)C(C)C)cc1OC (stereo not given)	-0.3	0.07
FC(F)(F)c1nc(NCc2cccnc2)c2ccccc2n1	0.1	0.905
O=C(O)c1ccc(Sc2ccccn2)c([N+](=O)[O-])c1	.	0.05
C=CCn1c(SC)nc2c1c(=O)[nH]c(=O)n2C	0.55	.
CSc1ccccc1C(=O)NCCOc1ccccc1C(C)C	-1	-0.81
C=CCSc1nc(C)cc(=O)[nH]1	1.25	.
FC(F)(F)c1cnc(/C=C/Nc2ccccc2Oc2ccccc2)c(Cl)c1	.	-0.145
COc1nc(Nc2cccc(C(F)(F)F)c2)nc(OC)n1	.	-0.59
Nc1nc(Nc2cccc3ccccc23)nc(C2CCCC2=O)n1 (stereo not given)	0.65	.
C=CCN(CC=C)C(=O)C1CCN(Cc2cccc(Cl)c2)CC1	2.35	0.515
CCOc1ccccc1NC1=NCCS1	-0.6&-1.05	0.835&-0.445
CCCc1nc2c(C)cc(-c3nc4ccccc4n3C)cc2n1Cc1ccc(-c2ccccc2C(=O)O)cc1	1.3	.
O=C(c1ccc(Cl)cc1)c1cnc(-c2ccccn2)nc1-c1ccc(Cl)cc1	.	-0.1
COc1cccc(NC(=O)CSc2nc3ccccc3c(=O)n2CCc2ccccc2)c1	-0.55	-0.385
CC(C)(C)NC(=O)N1CCc2ccccc2C1	-0.75	-0.06
CCS(=O)(=O)N(CC(=O)O)c1ccc(OC)cc1	-0.4	-0.17
CCC(C)C(N)C1=NC(C(=O)N[C@@H](CC(C)C)C(=O)N[C@H](CCC(=O)O)C(=O)N[C@H](C(=O)N[C@H]2CCCCNC(=O)[C@H](CC(N)=O)NC(=O)[C@@H](CC(=O)O)NC(=O)[C@H](Cc3cnc[nH]3)NC(=O)[C@@H](Cc3ccccc3)NC(=O)[C@H]([C@@H](C)CC)NC(=O)[C@@H](CCCN)NC2=O)[C@@H](C)CC)CS1 (stereo not given in full)	.	-0.9
CCOC(=O)Cc1nnc(Nc2cc(C)ccc2C)c2ccccc12	.	-1.24
COC(=O)C1=C(N)OC2=C(C(=O)CC(C)(C)C2)C12C(=O)Nc1ccccc12 (stereo not given)	.	-0.18
O=C(c1cc2cc(Cl)ccc2[nH]1)N1CCN(c2ccc(F)cc2)CC1	-0.55	0.295
COc1cc(/C=C2\SC(=S)N(C(C(=O)O)C(C)C)C2=O)cc(OC)c1O (stereo not given)	0.45	-0.36

Complete entries from above. Order of values: AID504770 | CapD inh
`CCOC(=O)Cc1nnc(Nc2cc(C)ccc2C)c2ccccc12` is listed with . | -1.24
`CCCc1nc2c(C)cc(-c3nc4ccccc4n3C)cc2n1Cc1ccc(-c2ccccc2C(=O)O)cc1` is listed with 1.3 | .
`CCOc1ccccc1NC1=NCCS1` is listed with -0.6&-1.05 | 0.835&-0.445
`CCNC(=O)c1ccc2c(c1)N(C)CCS2` is listed with -0.2 | 103
`O=C(O)c1ccccc1C(=O)c1ccc(F)cc1` is listed with . | 0.16

Continuation.
SMILES	AID504770	CapD inh
Cc1cc(C)cc(Oc2nc3ccccc3cc2-c2ccc(Cl)cc2)c1	.	0.02
O=C(C[n+]1ccccc1)Nc1ccc(C(=O)O)cc1	0.35	-0.015
COc1ccccc1-n1c(=O)c(C#N)cc2c(=O)n3ccccc3nc21	-0.2	15.1
Clc1ccccc1Sc1cnc2ccccc2n1	1.5	-0.415
O=C1CCCC2=C1C(c1ccc(O)c(O)c1)c1c(ccc3ncccc13)N2 (stereo not given)	1.1	.
O=C(Cn1cnc(SCc2ccccc2)n1)Nc1cccc(C(F)(F)F)c1	-0.1	54.5
O=C1Nc2ccccc2C12NNc1ccccc1O2 (stereo not given)	-0.6	.
COc1cc(C)c(CN)cc1C(C)C	0.1	.
O=C(CSc1nc(-c2ccccc2)c(-c2ccccc2)o1)N1CCCC1	-0.25	13.3
CC(C)(C)c1nc(=S)[nH][nH]1	1.7	9.76
Cc1ccc(-c2ocnc2C(N)=O)cc1	-1.05	-0.23
CCOC(=O)c1[nH]c(C)c(C(=O)N2CCCCC2C)c1C (stereo not given)	0.55	-0.555
N/C(=N\c1nc2c(c(=O)[nH]1)CCCC2)Nc1ccccc1	-0.7	-0.07
Cc1oc(C(C)(C)C)cc1C(=O)/C(C#N)=C/Nc1ccccc1	-1.4	-0.655
O=C(O)CC(NS(=O)(=O)c1cccc2nsnc12)c1ccccc1 (stereo not given)	.	-0.725

Arranged by length of the SMILES (descending): 3 of the compounds above.
SMILES	AID504770	CapD inh
O=C(CSc1nc(-c2ccccc2)c(-c2ccccc2)o1)N1CCCC1	-0.25	13.3
CCOC(=O)c1[nH]c(C)c(C(=O)N2CCCCC2C)c1C (stereo not given)	0.55	-0.555
Clc1ccccc1Sc1cnc2ccccc2n1	1.5	-0.415

Following part
SMILES	AID504770	CapD inh
CC/C(=N\OC(=O)Nc1ccc(OC(F)(F)F)cc1)c1ccc(-c2ccccc2F)cc1	.	0.105
COc1ccc(Cl)cc1NC(=S)NCCn1cc(Br)cn1	-1.15	-0.48
CCc1cc2c(=O)c(-c3cnn(-c4ccccc4)c3)coc2c(CN2CCOCC2)c1O	0	1.11
O=C(N/N=C/c1ccc(N2CCOCC2)cc1)C1CC1	0.45	.
CCn1c2ccccc2c2cc(CN3CCC(NC(=O)OCc4ccc(C(F)(F)F)cc4F)C3)ccc21 (stereo not given)	.	18.9
COc1ccc(C(Nc2ccccn2)c2oc(CO)cc(=O)c2O)cc1 (stereo not given)	-0.55	0.48
O=C(Nc1ccc(SC(F)F)cc1)C12CCC(CC1)C2	0.15	.
CC1(C)CC2CC(C)(CN2C(=O)CCCN2C(=O)c3ccccc3C2=O)C1 (stereo not given)	-0.55	.
O=C(O)/C=C\C(=O)N1CCc2ccccc21	0.1	-0.24
FC(F)(F)c1ccc(-c2[nH]ncc2-c2cnc3ccccc3n2)cn1	.	0.355
Cc1cc(C)cc(C(=O)N(CCc2ccccc2)C2CC3CCC(C2)N3C)c1 (stereo not given)	0.35	-1.1
CCc1ccc(-c2cn3ccsc3n2)cc1	0.5	1.83
CC1CN(c2nc(-c3ccc(F)cc3)cs2)CC(C)O1 (stereo not given)	-0.5	0.27
CCN1C(=O)/C(=C/c2ccccc2)SC1=S	0.05	0.005
Cc1ccc(C)c(S(=O)(=O)n2ccnc2)c1	-0.65	0.03
Cc1cc(C)nc(NS(=O)(=O)c2ccc(N3C(=O)C4C5C=CC(C5)C4C3=O)cc2)n1 (stereo not given)	.	0.415
COC(=O)c1cc2sccc2n1Cc1cc(=O)n2ccccc2n1	0.85	0.21
COc1cc(N/C(N)=N/c2nc(CSc3ccc(C)cc3)cc(=O)[nH]2)cc(OC)c1	0.45	0.32
CCOC(=O)COc1ccc2ccccc2c1C1NC(=O)NC(C)=C1C(=O)OCC (stereo not given)	.	-1.02
CN(Cc1ccccc1)C(=O)c1ccc(N2CC3CC(C2)c2cccc(=O)n2C3)c(NC(=O)Cc2c(F)cccc2Cl)c1 (stereo not given)	.	-0.185
COc1cc2c(cc1OC)C(c1cccs1)NCC2 (stereo not given)	0.35	.
O=C(O)c1coc2ccccc12	3.85	.
CCOC(=O)c1cc(-c2ccc(C)cc2)n(CCC(=O)N2CCN(c3ccccn3)CC2)c1C	-0.55	1.29
O=C(CCCC(=O)N1CCc2ccccc21)N1CCc2ccccc21	-0.5	0.265
S=C1NCN(Cc2cccnc2)CN1	.	-0.26
COc1ccccc1NC(=O)Cc1noc(COC(=O)c2ccc(Br)o2)n1	1.8	.
O=C(c1sc2ccccc2c1Cl)N1CCC2(CC1)OCCO2	0.2	0.655
Cc1onc(-c2ccccc2Cl)c1-c1nc2ccccc2c(=O)o1	-0.45	0.075
O=C(c1ccccc1)c1c[nH]c(C(=O)NCc2cccnc2)c1	-0.15	0.235
NS(=O)(=O)c1ccc(CNC(=O)CC23CC4CC(CC(Br)(C4)C2)C3)cc1	1.15	-1.42

Single values from the entries so far.
CapD inh, `NS(=O)(=O)c1ccc(CNC(=O)CC23CC4CC(CC(Br)(C4)C2)C3)cc1` = -1.42
AID504770, `COc1ccccc1NC(=O)Cc1noc(COC(=O)c2ccc(Br)o2)n1` = 1.8
AID504770, `COc1cc2c(cc1OC)C(c1cccs1)NCC2` (stereo not given) = 0.35
AID504770, `O=C(c1ccccc1)c1c[nH]c(C(=O)NCc2cccnc2)c1` = -0.15
AID504770, `O=C(O)c1coc2ccccc12` = 3.85

(more compounds)
SMILES	AID504770	CapD inh
O=C(CCc1nnc2n(CCc3ccccc3)c(=O)c3ccccc3n12)NCc1ccco1	0.95	0.44
COc1ccc(-c2cc3ccccc3n2CC(O)CNCC2CCCO2)cc1 (stereo not given)	-1.2&0.7	6.05&5.33
CC1CCN(S(=O)(=O)c2cc(Br)cnc2N)CC1	1.1	-0.18
COCCCn1c(C)nnc1SCC#N	-0.05	.
CN1CCN(NC(=O)COc2cccc(C(F)(F)F)c2)CC1	0.05	0.79
CNC(=O)c1c(C)[nH]c(=S)c(C#N)c1-c1ccco1	1.45	.
CC(C)(C)Sc1ccccc1CN1CCN(CCOC(=O)N2CCN(c3cc(C(F)(F)F)ccn3)CC2)CC1	.	22.3
CN(C/C=C/c1ccc(N(C)C)cc1)CCc1ccccn1	-0.25	3.57
COc1cc(C2C(C(=O)OC3CCCC3)=C(C)NC3=C2C(=O)CC(c2cccs2)C3)cc(OC)c1OC (stereo not given)	.	13.6
O=C(COC(=O)c1cccs1)c1ccc2c(c1)OCCO2	0.1	7.35
Cc1ccc(C(C)C)c(OCCCCN(C)C)c1	-0.45	.
Cn1c(CO)nc2cc(N=Cc3ccc(O)cc3O)ccc21	0.25	-1.4
Cc1ccc(=O)n(S(=O)(=O)c2ccc(F)cc2F)n1	-0.55	0.735
CCN(CC(=O)Nc1ccc(S(=O)(=O)N2CCCC2)cc1)CC(=O)Nc1cccc(OC)c1	-2.25	.
Cc1ncc(CO)c(/C=N/NC(=O)c2ccc(C(F)(F)F)cc2)c1O	.	0.41
COc1ccc(C2CC(=O)C3=C(C2)Nc2ccccc2NC3c2cc3c(cc2[N+](=O)[O-])OCO3)cc1 (stereo not given)	.	0.485
O=C(O)C1CC2(COC(c3ccccc3)OC2)C1C(=O)O (stereo not given)	.	0.03
CCOC(=O)C1C(=O)NC(SCC(=O)Nc2ccc(Cl)cc2)=C(C#N)C1c1ccccc1Cl (stereo not given)	.	-0.865
CCOC(=O)c1cnc2cc(Cl)c(OC)cc2c1N1CCN(c2cccc(Cl)c2)CC1	-0.5	0.195
COc1cc(-n2c(=O)c3ccccc3n(CC(=O)NCc3ccc(C)cc3)c2=O)cc(OC)c1OC	-0.15	1.67
CNS(=O)(=O)c1ccc(NC(=O)c2cc3ccccc3oc2=O)cc1	0.8	1.04
COc1cc(C2C(C#N)=C(N)Oc3n[nH]c(C)c32)cc(OC)c1OC(=O)N1CCOCC1 (stereo not given)	.	-0.235
CCCN(S(=O)(=O)c1ccc(OCC)cc1)S(=O)(=O)c1cccs1	1.7	.
Cc1ccc(SCC(=O)Nc2ccccc2)cc1	1.2	.
O=C(OCCN1C(=O)c2cccc3c(N4CCCCC4)ccc(c23)C1=O)c1ccc(S(=O)(=O)N2CCCCC2)cc1	.	0.3
CCn1nc(C(=O)OCC(=O)c2c[nH]c3ccccc23)c2ccccc2c1=O	-0.9	.
O=C(NCCc1ccc(F)cc1)c1ccc(S(=O)(=O)N2CCCCC2)cc1	1.65	-0.49
COc1ccc(NC(=O)CCC2CCCCC2)c(OC)c1	-0.2	0.535
Cc1cc(NC(=O)CSc2cn(CC(=O)N3CCC(C)CC3)c3ccccc23)no1	0.1	-0.585
O=C(O)CCCC(=O)Nc1nccs1	0.75	0.275

The list goes on, overlapping the part above by 3 compounds.
SMILES	AID504770	CapD inh
COc1ccc(NC(=O)CCC2CCCCC2)c(OC)c1	-0.2	0.535
Cc1cc(NC(=O)CSc2cn(CC(=O)N3CCC(C)CC3)c3ccccc23)no1	0.1	-0.585
O=C(O)CCCC(=O)Nc1nccs1	0.75	0.275
Cn1cc(S(=O)(=O)NCc2ccc3c(c2)OCO3)c(C(F)(F)F)n1	2.85	-1.57
O=C(/C=C/c1cc2cccc3c2n(c1=O)CCC3)N1CCN(Cc2ccccc2)CC1	.	1.9
O=c1[nH]c2ccc(NS(=O)(=O)c3ccc(C4CCCCC4)cc3)cc2[nH]1	0.35	-0.04
O=S(=O)(NCC1COc2ccccc2O1)c1ccc(S(=O)(=O)c2ccccc2)s1 (stereo not given)	2.2	-0.365
COc1ccccc1C(=O)Nc1ccc2nc(SCC(=O)NCC3CCCO3)sc2c1 (stereo not given)	.	1.23
CCOC(=O)c1ccc(N2C(=O)CC(NCc3ccc(OC)cc3)C2=O)cc1 (stereo not given)	.	-0.21
CS(=O)(=O)NCCSc1nnnn1-c1ccccc1	-0.7	1.11
CC(=O)N1CCN(C(=O)COc2ccc(Br)cc2)CC1	0	0.235
CCCCc1c(O)c2ccc(C)cc2n(CC)c1=O	2.3	6.76
O=C(Nc1ccc(-c2nc3ccccc3c(=O)[nH]2)cc1)C1CCCCC1	-0.25	1.52
